Screening results from PubChem.
2A StopGo = lowers the luciferase signal of an FMDV 2A StopGo reporter | Potency, µM (doses to about 57.9 µM), without a hit: at the highest dose signal change, negative = less light | 410,000 compounds, 1.2% hits | human cells with a luciferase reporter of 2A StopGo recoding; control for the full effect not named in the record; active = well fitted falling curve with a large enough effect; inconclusive = small, poorly fitted or top-dose-only effect; inactive = no such curve, though single readings can be large or run the other way; tested in HEK293T cells; note: % is set by controls: 0 for no effect and ±100 for the full control effect; nearly all actives have a fitted effect of over 45% in size; luciferase light after 4 h
NS1 inh = influenza NS1 inhibition | Potency, µM (highest dose often 46.1 µM), for inactives: at the top dose activity, positive = more growth | 270,000 compounds, 0.4% hits | S. cerevisiae slowed by influenza A NS1, growth recovery by OD600; active means well fitted rising curve with a large enough effect; inconclusive means small, poorly fitted or top-dose-only effect; inactive means no such curve, though single readings can be large or run the other way; note: nearly all actives have a fitted effect of over 50% in size
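Growth recovery, yeast-based: influenza A NS1 expressed in S. cerevisiae causes slow growth, and suppressors are detected by OD600. The parent strain without NS1 is used as positive control.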
Cruzain inh noDet = cruzain (T. cruzi) inhibition without detergent; purified cruzain, Z-FR-AMC fluorescence, no detergent; 200,000 compounds, 2.3% hits; Potency, µM, inactives show max response, negative = inhibition, hits mostly inhibitors;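 note: plate controls were enzyme without inhibitor for no effect and buffer without enzyme for full effect; nearly all actives have a fitted effect of over 40% in size; top concentration of the series not given in the record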
Target sequence (P25779 123-467 limits assumed): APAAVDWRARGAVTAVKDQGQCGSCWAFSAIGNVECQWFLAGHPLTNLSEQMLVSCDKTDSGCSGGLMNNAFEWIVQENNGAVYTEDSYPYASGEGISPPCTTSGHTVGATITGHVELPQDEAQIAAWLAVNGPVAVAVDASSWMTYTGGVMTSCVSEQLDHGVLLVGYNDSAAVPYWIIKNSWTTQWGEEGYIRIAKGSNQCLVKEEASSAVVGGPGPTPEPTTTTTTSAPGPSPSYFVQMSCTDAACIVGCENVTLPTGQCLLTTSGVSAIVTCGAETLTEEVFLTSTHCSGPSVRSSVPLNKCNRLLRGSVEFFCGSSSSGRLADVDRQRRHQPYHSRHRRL
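Detergent-free condition (0.00005% Triton X-100) in acetate buffer pH 5.5 with DTT. 1.5 nM enzyme and compound were pre-mixed 15 min, then 2 uM Z-FR-AMC substrate added; reaction progress from fluorescence change between first and third reads (60 s).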
Marburg entry inh = Marburg virus entry inhibition. Marburg virus pseudotyped entry inhibition, cell reporter; control for the full effect not named in the record; about a third of the inactives were read at about 46 µM. AID 540276. 300,000 compounds, 1.8% hits. Potency, µM (top dose mostly 37.8 µM), for the others: top-dose activity change, negative = inhibition, actives largely listed as inhibitors; active = well fitted inhibition curve with a large enough effect; inconclusive = small, poorly fitted or top-dose-only effect, or effect the other way; inactive = flat fitted curve, though single readings scatter; tested in HEK293 cells; about a fifth of its hits are not listed in these tables; note: % is set by controls: 0 for no effect and ±100 for the full control effect; luciferase read-out
SARS PLpro yeast = blocks SARS-CoV papain-like protease in a yeast assay. Potency, µM (series often up to 32.9 µM), for the others: top-dose activity, positive = growth rescue. S. cerevisiae expressing SARS-CoV PLpro, growth rescue; control for the full effect not named in the record. 330,000 compounds, 0.19% hits; active means well fitted rising curve with a large enough effect; inconclusive means small, poorly fitted or top-dose-only effect; inactive means no such curve, though single readings can be large or run the other way; note: 0% is about no effect; nearly all actives have a fitted effect of over 55% in size; growth read by luminescence after 48 h
RE007 growth inh = less growth of the S. pombe RE007 Vpr strain; S. pombe RE007 Vpr strain, BacTiter-Glo ATP luminescence, 24 h; control for the full effect not named in the record; Potency, µM (series often up to 92.2 µM), without a hit: at the highest dose activity change, negative = less growth; 360,000 compounds, 0.21% hits; AID 651644; active = well fitted falling curve with a large enough effect; inconclusive = small, poorly fitted or top-dose-only effect; inactive = no such curve, though single readings can be large or run the other way;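 note: % is set by controls: 0 for no effect and ±100 for the full control effect; nearly all actives have a fitted effect of over 50% in size; the assay follows cell death caused by Vpr and the record does not say whether a fall means rescue or toxicity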
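Fission yeast strain RE007, carrying one chromosomally integrated HIV-1 vpr copy, was seeded at OD 0.01 in PMG+AL medium with 23 nL pinned compound. After 24 h at 30 °C and 99% humidity, viability was read by BacTiter-Glo luminescence.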
Cruzain Triton = inhibitors of Trypanosoma cruzi cruzain with detergent; 200,000 compounds, 0.43% hits; P25779; purified cruzain, Z-FR-AMC fluorescence, 0.01% Triton; Potency, µM, for the others: max response, negative = inhibition, usual class: inhibitors; AID 1478;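 note: plate controls were neutral wells for no effect and buffer without enzyme for full effect; nearly all actives have a fitted effect of over 40% in size; top concentration of the series not given in the record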
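Sodium acetate buffer (100 mM, pH 5.5) containing 5 mM DTT and 0.01% Triton X-100 hosted 1.5 nM cruzain and test compound for 15 min at room temperature. Cleavage of 2 uM Z-FR-AMC was then tracked by fluorescence.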
LASV entry inh = inhibitors of Lassa virus binding or cell entry. Potency, µM (series often up to 37.9 µM), for inactives: top-dose activity change, negative = inhibition, hits mostly inhibitors. Lassa virus pseudotype entry inhibition, cell reporter; control for the full effect not named in the record. 300,000 compounds, 1.2% hits; active means well fitted inhibition curve with a large enough effect; inconclusive means small, poorly fitted or top-dose-only effect, or effect the other way; inactive means flat fitted curve, though single readings scatter; tested in HEK293 cells; note: % is set by controls: 0 for no effect and ±100 for the full control effect; nearly all actives have a fitted effect of over 50% in size; luciferase read-out
* hit, by the source's call; ? = inconclusive; · = no result given; & = joins results of further samples; [ ] = dose if it differs, or a comment. Unless noted, calls come from the whole dose curve; as a rule, active = well fitted curve in the direction sought with a large enough effect; inconclusive = small, poorly fitted or top-dose-only effect, or another doubt; inactive = no such curve, though single readings can be large; an effect the other way counts as inactive or inconclusive. Potency is the fitted concentration of half-maximal effect.

Values run as follows: RE007 growth inh	Cruzain Triton	LASV entry inh	Marburg entry inh	SARS PLpro yeast	2A StopGo	Cruzain inh noDet	NS1 inh
> COc1ccc(OC)c(NC(=O)C(C)n2c(=O)cc(C)c3c(C)nn(-c4ccccc4)c32)c1 (stereo unspecified)
  ·	0.1%	-4%[46.1 µM]	·	·	-13%	1%	·
> COC(=O)c1sccc1NC(=O)CC1C(=O)NCCN1C(=O)c1ccc(N(C)C)cc1 (stereo unspecified)
  14%	·	?	5%	0%	9%	·	5%
> Cc1cc(C(F)(F)F)n2ncc(C(=O)O)c2n1
  -3%	0.3%	·	·	8%	-20%	-11%	-1%
> CC(C)n1c(Oc2ccc(F)cc2)nc2c1c(=O)n(C)c(=O)n2C
  1%	·	·	-15%[46.1 µM]	1%	-16%	·	-2%
> Cc1ccc(Oc2ccc(OCC(=O)NC(C)C(=O)O)cc2)cc1 (stereo unspecified)
  5%	3.5%	2%	-15%	-1%	6%	-3%	7%
> CCOc1ccc(NC(=O)C2CCCN(C(=O)Nc3ccccc3)C2)cc1 (stereo unspecified)
  4%	-2.2%	-11%	25%	10%	22%	3%	17%
> CC(=O)N1CCN(c2ccc(NCc3ccc(C(C)C)cc3)cc2)CC1
  12%	1.0%	?	-1%	1%	0%	?	2%
> COc1ccc(CCNC(=O)CCc2c(C)nc3cc(-c4ccccc4OC)nn3c2C)c(OC)c1
  ·	-9.0%	-23%[46.1 µM]	-10%[46.1 µM]	·	-11%	?	·
> O=C(CNC(=O)c1cccc(OC(F)F)c1)OCn1nnc2ccccc2c1=O
  -10%	·	-8%[46.1 µM]	7%[46.1 µM]	2%	30%	·	·
> COc1ccc(OC)c(NC(=O)c2c(NC(=O)CCC(=O)O)sc3c2CCCCC3)c1
  1%	-8.9%	9%	9%	23%	5%	?	5%
> COCCCNCC1C(Oc2ccc(Cl)cc2)C(=O)N1c1ccccc1C (stereo unspecified)
  -5%	0.1%	-2%	?	-2%	-7%	-1%	-11%
> Nc1ccc(S(=O)(=O)Nc2nccc(/C=C/c3ccc(Cl)cc3)n2)cc1
  -5%	·	20%	-18%[46.1 µM]	-8%	11%	·	-4%
> Cc1ccc(N(C)S(=O)(=O)c2cccc(C(=O)OCC(=O)c3c(N)n(C)c(=O)n(C)c3=O)c2)cc1
  1%	·	?	?	-16%	?	·	·
> COc1cc2c(cc1OC)-c1nnc(C)n1C1(CCCC1)C2
  -12%	-0.2%	1%	-1%	6%	-16%	-4%	-6%
> O=C(NCCc1ccccc1)c1ccc2nccnc2c1
  0%	·	2.8µM*	1.3µM*	0%	-36%	·	3%
> COc1ccc(Cc2nc3ccc(C(=O)NC(C)c4cn(C)nc4C)cc3o2)cc1 (stereo unspecified)
  0%	·	·	·	?	-15%	·	-6%
> Cc1cnc(NCCc2ccccc2)s1
  -4%	·	·	·	1%	57%[activator]	·	6%
> O=C(N/N=C/c1ccc2c(c1)OCO2)c1ccc(COCC(F)(F)C(F)F)cc1
  -7%	·	?	-18%[46.1 µM]	-4%	-19%	·	-1%
> Cc1cccc(C(=O)Nc2sc3c(c2C(=O)O)CCC3)c1
  ?	·	·	·	-2%	?	·	-56%
> COc1cccc(-c2nc(S(=O)(=O)c3ccc(C)cc3)c(N3CCCCCC3)o2)c1
  ·	-8.1%	?	?	·	18%	-11%	·

Of the compounds above, these contain an aryl methoxy group:
Values run as follows: RE007 growth inh	Cruzain Triton	LASV entry inh	Marburg entry inh	SARS PLpro yeast	2A StopGo	Cruzain inh noDet	NS1 inh
> COc1ccc(OC)c(NC(=O)C(C)n2c(=O)cc(C)c3c(C)nn(-c4ccccc4)c32)c1 (stereo unspecified)
  ·	0.1%	-4%[46.1 µM]	·	·	-13%	1%	·
> COc1ccc(CCNC(=O)CCc2c(C)nc3cc(-c4ccccc4OC)nn3c2C)c(OC)c1
  ·	-9.0%	-23%[46.1 µM]	-10%[46.1 µM]	·	-11%	?	·
> COc1ccc(OC)c(NC(=O)c2c(NC(=O)CCC(=O)O)sc3c2CCCCC3)c1
  1%	-8.9%	9%	9%	23%	5%	?	5%
> COc1cc2c(cc1OC)-c1nnc(C)n1C1(CCCC1)C2
  -12%	-0.2%	1%	-1%	6%	-16%	-4%	-6%
> COc1ccc(Cc2nc3ccc(C(=O)NC(C)c4cn(C)nc4C)cc3o2)cc1 (stereo unspecified)
  0%	·	·	·	?	-15%	·	-6%
> COc1cccc(-c2nc(S(=O)(=O)c3ccc(C)cc3)c(N3CCCCCC3)o2)c1
  ·	-8.1%	?	?	·	18%	-11%	·

(list continues)
Values run as follows: RE007 growth inh	Cruzain Triton	LASV entry inh	Marburg entry inh	SARS PLpro yeast	2A StopGo	Cruzain inh noDet	NS1 inh
> CC1=C(O)C(=O)C=C2C1=CC=C1C2(C)CCC2(C)C3CC(C)(C(=O)O)CCC3(C)CCC12C (stereo unspecified)
  ?	·	?	2.8µM*	·	-11%	·	·
> CCOc1cccc(C(=O)Nc2cccc(-c3nc4ncccc4o3)c2C)c1
  -6%	-3.7%	0%	18%	-5%	-25%	7%	-75%
> O=C(CSc1n[nH]c(=O)n1-c1ccccc1)N1CCOCC1
  15%	·	3%	17%	1%	-6%	·	3%
> CCOP(=O)(c1ccc(N(C)C)cc1)C(O)c1cc(OC)c(OC)c(OC)c1 (stereo unspecified)
  5%	1.9%	1%	3%	2%	17%	-3%	-3%
> Cc1nccn1CC(O)COc1ccccc1 (stereo unspecified)
  0%	0.0%	6%	-4%	10%	-12%	-14%	-1%
> CC(C)OC(=O)Nc1ccc2c(c1)N(C(=O)CCN(C)C)c1ccccc1CC2
  -7%	·	·	·	3%	6%	·	6%
> Cc1cc(-c2n[nH]c(=S)n2/N=C/c2cccs2)n[nH]1
  1%	-6.5%	-7%	-13%	15%	-19%	-7%	20%
> CC(C(=O)NC1=NCCS1)N1C(=O)C2CC=CCC2C1=O (stereo unspecified)
  3%	3.5%	1%	8%	0%	-21%	0%	-4%
> COCCCn1c(=NC(=O)c2ccncc2)c(C#N)cc2c(=O)n3cccc(C)c3nc21
  16%	-3.6%	3%	3%	-1%	-6%	?	14%
> CC(C)N1C(=O)S/C(=C\c2ccc(-c3ccc(Cl)c(C(=O)O)c3)o2)C1=O
  2%	·	·	·	2%	-17%	·	17%
> CC(=O)c1cccc(NC2c3ccccc3C(=O)N2Cc2ccc3c(c2)OCO3)c1 (stereo unspecified)
  1%	-2.1%	-11%	-15%	9%	-14%	-11%	3%
> CCc1onc(C)c1C(=O)O
  -4%	·	3%[46.1 µM]	7%[46.1 µM]	1%	15%	·	·
> CCN(CC)CCCNC(=O)/C(=C\c1cccn1C)NC(=O)c1cccs1
  3%	-11%	-11%	-2%	?	-4%	-1%	11%
> CCC(C)Oc1ccc(/C=C/c2[nH]c(=O)[nH]c(=O)c2[N+](=O)[O-])cc1OC (stereo unspecified)
  6%	·	-10%[46.1 µM]	?	-2%	32µM*	·	·
> CCOC(=O)C1CCN(C/C=C/c2ccccc2)CC1
  11%	·	·	·	2%	-11%	·	-1%
> CCn1c(SCC(=O)N2c3ccccc3CCc3ccccc32)nc2c1c(=O)n(C)c(=O)n2C
  5%	·	-15%	?	·	19%	·	2%
> O=C(CSC(=S)N1CCCCC1)c1ccccc1
  3%	·	?	?	-1%	-26%	·	1%
> O=C(COC(=O)c1ccncc1)Nc1ccccc1
  -6%	·	?	7%	0%	81%[activator]	·	·
> CC(C)NCC(O)COc1ccc(Br)cc1 (stereo unspecified)
  -7%	·	-14%	?	0%	-8%	·	-3%
> CCNC(=O)C(=O)Nc1ccc([N+](=O)[O-])cc1
  -11%	·	11%	0%	-2%	26%	·	·
> COc1ccccc1N1C(=O)c2ccc(C(=O)Nc3nccs3)cc2C1=O
  -3%	·	-3%	11%[46.1 µM]	1%	-22%	·	·
> O=C(Nc1ccccc1N1CCN(C(=O)c2ccccc2)CC1)c1ccccc1Cl
  -1%	·	·	·	-8%	-11%	·	-5%
> CC(Oc1ccc(F)cc1)C(=O)Nc1cc(S(=O)(=O)N2CCOCC2)ccc1N1CCN(C)CC1 (stereo unspecified)
  12%	·	9%	-14%	-1%	-18%	·	·
> Cn1cc(C(=O)NC2C3CC4CC(C3)CC2C4)cn1 (stereo unspecified)
  11%	-0.2%	-17%	10%	-5%	8%	8%	3%
> Cc1cc(C)n(CCNC(=O)c2cc(COc3ccc(F)cc3Cl)on2)n1
  -12%	·	-16%	-24%[46.1 µM]	3%	?	·	-8%
> CCCOCCc1nnc(N)s1
  -21%	·	-12%[46.1 µM]	2%[46.1 µM]	5%	-7%	·	3%
> COc1ccc(C(=O)N2CCN(C(=O)c3ccco3)CC2)cc1OC
  -15%	-2.4%	13%	-2%	-1%	-9%	-10%	0%
> Cc1onc(-c2c(F)cccc2Cl)c1C(=O)NCCN1CCNC1=O
  27%	·	16%	0%[46.1 µM]	0%	-14%	·	0%
> CCCn1c(SCC(=O)c2cc(C)n(-c3cc(C)on3)c2C)n[nH]c1=O
  -17%	·	?	-29%	0%	?	·	·
> Cc1ccc(NC2CCCN(C(=O)c3snnc3C)C2)cc1C (stereo unspecified)
  -1%	·	·	·	0%	0%	·	9%
> COc1ccc(C(=O)NCc2ccccn2)cc1[N+](=O)[O-]
  10%	·	5%	-6%[46.1 µM]	0%	-11%	·	·
> COc1ccc(/C=C/C(=O)OCC(=O)c2ccccc2F)cc1
  -19%	·	-4%	-2%	6%	39%[activator]	·	·
> COc1ccc(OCC(=O)N2CCN(C(=O)c3cccc4ccccc34)CC2)cc1
  2%	-0.7%	-27%	3%	-3%	0%	16%	8%[9.22 µM]
> O=C1CC(N(CCc2ccccc2)C(=S)Nc2cc(Cl)ccc2Cl)C(=O)N1c1c(Cl)cccc1Cl (stereo unspecified)
  -12%	0.8%	?	13µM*	-7%	14%	13µM*	?
> C=CCOC(=O)NC(c1ccc(F)c(F)c1)C(C(=O)CCl)C(=O)OC (stereo unspecified)
  ·	-21%	?	-20%&-20%[14.2 µM]	·	·	-5%	·
